Bead autofluor: compound fluorescence in toxin protease inhibitor counterscreen. fluorescence intensity (test concentration not listed). 360,000 tested, 3.1% active. compound autofluorescence counterscreen, microsphere flow cytometry; stronger effect = higher value;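 active means at least 3 SD above the mean of all compounds, about 16000 in these data; inconclusive means too few beads counted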;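 further: 100 nL of 1 mM stock went into each well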
Mtb hypoxia inh: inhibitors of hypoxia-regulated fluorescent reporter in Mycobacterium tuberculosis; M. tuberculosis hypoxia-regulated fluorescent reporter, fluorescence; fluorescence inhibition, % (no concentration beside the values); 300,000 tested, 0.1% active;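 active means 35 to 45% if threefold the growth effect, above 45% if 1.5-fold the growth effect; inactive means the rest, general growth blockers included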;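 further: wells of about 50 µL received 100 nL stock; 0% = vehicle wells and 100% = reference inhibitor wells; whole bacteria with a GFP reporter of the hypoxia response; strong numbers were not always called active; many hits fall short of the cut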
Sa RN4220 lethal: kills Staphylococcus aureus RN4220. S. aureus RN4220 growth, OD600, 16 h. inhibition, % (test concentration not listed). 330,000 tested, 0.33% active. AID 1259311;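 active means z-score of -3 or lower and OD600 up to 0.18 on both plates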;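 further: plate controls were untreated cells for no effect and reference antibiotic for full effect; stock transfer was 100 nL into about 80 µL; one replicate is shown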
PrP 5UTR inh: inhibition of PrP 5' UTR reporter expression; 340,000 tested, 0.35% active; inhibition, % (no concentration beside the values); AID 488862; cell-based PrP 5' UTR mRNA reporter, plate reader;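 active means every replicate at 50% or more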;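 further: 0 = median of the neutral control wells; tested in H4 reporter cells; numbers are from one replicate; inactives centre near -14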
BJeLR viability: kills HRASV12-expressing BJeLR cells; BJeLR (HRASV12) viability, CellTiter-Glo ATP luminescence, 48 h; reference of the scale not given here; inhibition, % (no concentration beside the values); 300,000 tested, 0.17% active; AID 1554;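 active means replicate mean above 50%; inconclusive means above 50% but judged a plate artefact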;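 further: 50 nL library stock added to about 25 µL; numbers are from one replicate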
Sa ugtP lethal: compounds lethal to S. aureus RN4220 ugtP deletion mutant | OD600 growth, 16 h; some inactives read as strong as hits | growth inhibition, % (no concentration beside the values) | 330,000 tested, 0.54% active;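 active means z-score under -3 and OD600 up to 0.15 on both plates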;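 further: plate controls were untreated wells for no effect and antibiotic for full effect; wells of about 80 µL received 100 nL stock; the first replicate is given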
Mtb hypoxia inh growth: recorded beside Mtb hypoxia inh, whose call it bears; growth inhibition, %; measured here: M. tuberculosis growth (absorbance);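 0% = vehicle and 100% = reference antibiotic; read after six days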
Starred values were filed as active, the others as inactive; ? = inconclusive; · = not tested or not shown.

SMILES	Bead autofluor	Mtb hypoxia inh	Mtb hypoxia inh growth	Sa RN4220 lethal	PrP 5UTR inh	BJeLR viability	Sa ugtP lethal
COc1cc(NC(=O)COC(=O)CNC(=O)C2CCCCC2)cc(OC)c1	8495	-3	1	-3.9	-19	·	1
Cc1ccc(S(=O)(=O)N2CCCOC2CNC(=O)C(=O)NCCCn2ccnc2)cc1 (stereo not drawn)	2487	10	5	4.0	-13	-9	7
Cn1c(=O)c(=O)n(C)c2cc(N3CCOCC3)c(NS(=O)(=O)c3ccc([N+](=O)[O-])cc3)cc21	4938	15	7	6.0	-6	2	6
CCCNC(=O)NC(=O)CSc1ccc2c(c1)OCCO2	2422	·	·	-3.0	-7	·	12
CCC(C)c1ccc(C(C)NC(=S)NC2CCCCC2)cc1 (stereo not drawn)	5697	·	·	·	-22	-8	·
Fc1ccc(-c2ccnc3nc(N4CCN(c5ccccc5)CC4)nn23)cc1	13991	4	6	6.4	-10	-6	4
CCC(c1ccc(C)cc1)N1C(=O)C2C3CCC(O3)C2C1=O (stereo not drawn)	3851	-5	-11	-5.0	2	·	-4
O=C1c2cccc3c([N+](=O)[O-])c(O)cc(c23)C(=O)N1Nc1ccccc1	4887	15	-1	16	-14	-6	10
COc1ccc(C=Nn2c(-c3ccco3)nc3ccccc3c2=O)cc1	·	4	15	1.2	·	·	-2
CC1Sc2ccc(S(=O)(=O)N3CCC(C(=O)NCc4ccccc4)CC3)cc2NC1=O (stereo not drawn)	5834	15	1	1.7	-12	-7	11
O=c1c2ccccc2c(C=Nc2cccc(S(=O)(=O)NCc3ccco3)c2)c(O)n1-c1ccc(Cl)cn1	2078	12	4	-3.9	-3	-4	2
CC1(C2CC2)NC(=O)NC1=O (stereo not drawn)	2565	·	·	-4.8	-24	-6	-4
Cc1cc(NC(=O)CCCn2nc(C)c([N+](=O)[O-])c2C)no1	4573	9	4	2.4	-28	8	5
CCCCCC(=O)NC(NC(=S)NC1CCS(=O)(=O)C1)C(Cl)(Cl)Cl (stereo not drawn)	8193	-9	-4	-3.9	-16	-3	-13
COc1cccc(CNC(=O)C2Cc3ccccc3CN2C(C)=O)c1 (stereo not drawn)	3506	10	3	3.8	-29	4	-2
Cc1cc(C)cc(-n2c(C)nc3cc(C(=O)O)ccc32)c1	4213	8	2	0.9	-36	-31	13
Cn1c(=O)c(=O)n(C)c2cc(S(=O)(=O)CCC(=O)N3CCCCC3)ccc21	5622	-4	2	6.0	-9	-12	5
COC(=O)c1c(NC(=O)c2ccco2)sc(C)c1C	4992	·	·	3.4	-4	4	-8
CCOC(=O)CSc1ncc(OC)c(Sc2ccc(Cl)cc2)n1	21505*	-4	-3	4.2	-7	-1	-22
O=C1Nc2ccccc2Oc2cc([N+](=O)[O-])ccc21	3585	-9	-5	-1.3	-10	-10	2
O=c1c2ccccc2sn1-c1ccc(F)cc1	2951	2	4	29	-33	·	47
Cc1ccccc1OCC(=O)N1N=C(C(F)(F)F)CC1(O)C(C)(C)C (stereo not drawn)	3769	-79	-9	11	-5	1	-14
COc1cccc(CNC(=O)CCl)c1	11544	17	9	2.8	-47	-14	1
CC(C)NC(=O)Nc1cccc2c1O[C@@H](CN(C)S(=O)(=O)c1ccc(F)cc1)[C@@H](C)CN([C@H](C)CO)C2=O	4061	7	2	-7.5	-29	·	0
Cc1ccc(S(=O)(=O)NNc2ccccc2)cc1	16260*	4	2	2.3	-19	15	14
CCN(CC)S(=O)(=O)c1cccc(C(=O)N[C@H](C(=O)O)C(C)C)c1	2510	·	·	3.4	-11	7	1
O=c1ncn(-c2cccc(F)c2)c2ncccc12	19821*	2	4	-0.9	-10	-6	-2
Oc1cccc(C2c3[nH]c4ccccc4c3CCN2Cc2cnn(-c3ccccc3)c2)c1 (stereo not drawn)	3773	-6	5	-1.4	47	7	-14
O=C(O)c1cc2c([nH]c1=O)CCCC2	2806	·	·	-0.9	-13	2	9
N#Cc1cc2cc3c(cc2nc1SCC(=O)N1CCOCC1)OCO3	3584	9	11	1.2	-17	-3	5

In another format: 2 of the compounds above.
SMILES,Bead autofluor,Mtb hypoxia inh,Mtb hypoxia inh growth,Sa RN4220 lethal,PrP 5UTR inh,BJeLR viability,Sa ugtP lethal
O=C1Nc2ccccc2Oc2cc([N+](=O)[O-])ccc21,3585,-9,-5,-1.3,-10,-10,2
O=c1c2ccccc2sn1-c1ccc(F)cc1,2951,2,4,29,-33,·,47

New compounds follow.
SMILES	Bead autofluor	Mtb hypoxia inh	Mtb hypoxia inh growth	Sa RN4220 lethal	PrP 5UTR inh	BJeLR viability	Sa ugtP lethal
COc1ccccc1C(=O)NC1CCCc2ccccc21 (stereo not drawn)	3264	-5	-3	8.4	11	-5	-2
Cc1nnc(C)n1/N=C/c1cccnc1	2819	·	·	·	-11	4	·
O=C(CSc1nnc(CN2CCOCC2)n1-c1ccccc1)Nc1ccc(Cl)cc1	3248	5	14	10	0	-3	-2
COC(=O)c1c(C)oc(C)c1S(=O)(=O)N1CCCCC1	3465	16	9	2.7	-13	4	12
COCCNC(=O)CN1N=C(c2ccc(OC)cc2)CCC1=O	3783	-6	-4	-0.6	-14	-4	-5
Cc1nnc(-c2cccc(Br)c2)c2cn(-c3ccccc3Cl)nc12	26146*	1	9	13	-9	-8	-26
CC(O)CCc1nc2ccc(C(=O)O)cc2[nH]1 (stereo not drawn)	4700	-3	8	6.0	5	-1	10
Cc1cccc2cc(CN(Cc3cccs3)C(c3nnnn3C3CCCC3)C(C)C)c(=O)[nH]c12 (stereo not drawn)	4807	·	·	-3.4	-11	·	-3
C=CCn1c(=O)c2c(nc3n2CCCN3CCc2ccccc2)n(C)c1=O	4243	5	4	-2.0	-20	14	3
Cc1nn(CC(=O)NN=Cc2ccc(F)cc2)c(C)c1[N+](=O)[O-]	·	8	-9	3.4	·	·	7
CCCCn1c(N)c(N(CC)C(=O)c2c(CC)noc2C)c(=O)[nH]c1=O	4262	0	-7	6.3	-14	4	16
CCN1CCc2c(OCC(=O)N3CCCCC3)cccc2C1=O	4973	-3	8	6.9	-31	2	4
CN(C)c1ccc(-c2ccc3oc(-c4ccsc4)cc(=O)c3c2)cn1	2887	-7	6	7.2	-50	·	14
Cc1ccc(S(=O)(=O)N2CCCC(C(=O)O)C2)s1 (stereo not drawn)	5825	·	·	3.3	-12	-7	3
Cc1ccsc1C(=O)Nc1ccc(OCc2ccccc2)cc1	5262	·	·	·	-88	30	·
Cc1ccc(C(=O)NCc2ccco2)o1	5346	·	·	·	-24	-7	·
CCc1ccc(C=NNc2ncnc3nc[nH]c23)cc1	·	3	0	0.4	·	·	9
CCc1c(O)nc(SCc2nc3ccccc3c(=O)[nH]2)[nH]c1=O	4873	13	4	-0.1	2	2	-2
COc1ccc2nc(C)cc(NCCN3CCOCC3)c2c1	4010	-6	9	5.8	-9	1	-1
CCNC(=S)NCc1ccc(Cl)cc1	4099	·	·	-9.0	-20	-2	5
COc1ccccc1N1CCN(C(c2ccc(Cl)cc2)c2nnnn2C(C)(C)C)CC1 (stereo not drawn)	2290	·	·	-7.0	-11	-1	-2
O=S(=O)([N-]c1nc2ccccc2nc1-[n+]1ccccc1)c1ccccc1	2388	-1	-1	9.1	-1	-1	9
CC(=S)c1c(C)cc2cc(C)ccn12	2246	7	-1	12	-11	-6	7
CC(=O)C1=C(O)C(=O)N(c2nccs2)C1c1ccccc1F (stereo not drawn)	5791	-8	2	4.3	-17	-5	3
CCC(C)C(N=C1NS(=O)(=O)c2ccccc21)C(=O)N1CCC(C)CC1 (stereo not drawn)	?	-9	-4	1.0	-3	·	1
Oc1ccc(C=NCC2COc3ccccc3O2)cc1 (stereo not drawn)	20126*	2	0	1.1	-24	-22	2
COc1cccc(C(=O)NCCOc2cc(C)cc(C)c2)c1	2369	5	0	0.8	-1	2	-3
O=C(C1CCCN(S(=O)(=O)c2ccc(Cl)cc2)C1)N1CCCC1 (stereo not drawn)	3661	7	-2	0.5	-18	7	0
O=C(OCCN1CCCCC1)c1ccccc1F	3244	9	1	5.1	11	4	5
COc1cccc(NC(=O)CN(C)C(=O)c2oc3c(ccc4ccccc43)c2C)c1	6309	12	4	-4.0	-21	-2	15

Single values from above.
Mtb hypoxia inh result of `CC(O)CCc1nc2ccc(C(=O)O)cc2[nH]1` (stereo not drawn) : -3
Sa ugtP lethal result of `COc1ccccc1C(=O)NC1CCCc2ccccc21` (stereo not drawn) : -2
BJeLR viability result of `CCCCCC(=O)NC(NC(=S)NC1CCS(=O)(=O)C1)C(Cl)(Cl)Cl` (stereo not drawn) : -3
Bead autofluor result of `CC(=S)c1c(C)cc2cc(C)ccn12` : 2246
Mtb hypoxia inh growth result of `CCC(c1ccc(C)cc1)N1C(=O)C2C3CCC(O3)C2C1=O` (stereo not drawn) : -11

More structures.
SMILES	Bead autofluor	Mtb hypoxia inh	Mtb hypoxia inh growth	Sa RN4220 lethal	PrP 5UTR inh	BJeLR viability	Sa ugtP lethal
O=C(CSc1ccc(-c2ccco2)nn1)N1CCCC1	4018	7	5	3.0	-26	1	3
Cc1cc(C)c(NC(=O)C(C)c2cccc(C(=O)c3ccccc3)c2)c(C)c1 (stereo not drawn)	8856	1	-2	5.8	-13	-6	2
Cn1c2ccccc2c(=O)c2c(=O)n(C3CCCCC3)c(-c3ccco3)nc21	2231	1	4	2.0	-22	-4	-6
COc1ccccc1NC(=O)Cn1cc(C(=O)C2CC2)c2ccccc21	·	6	4	4.9	-21	7	17
Cn1cccc1Cc1nnc(SCC(=O)Nc2cccc(Cl)c2)n1-c1ccc(F)cc1	6431	·	·	1.7	-2	1	5
Cc1cc(C)n(C2CCCCC2OC(=O)c2ccccc2F)n1 (stereo not drawn)	8403	8	-6	2.1	-13	7	0
COc1cc(C2C3C(=O)N(Cc4ccccc4)C(=O)C3ON2c2ccccc2)cc(OC)c1OC (stereo not drawn)	4858	·	·	3.3	3	3	8
CC(C)c1ccc(C(=O)NC(=S)Nc2ccc3[nH]c(=O)[nH]c3c2)cc1	3463	7	14	0.7	-14	-1	12
COCCN(Cc1cc2cc(C)ccc2n2nnnc12)C(=S)Nc1ccc(OC)cc1	5412	3	14	1.1	-2	·	9
COc1ccc(C)cc1NC(=O)c1ccc(NS(=O)(=O)c2cccc3cccnc23)cc1	3946	1	-2	-3.4	-15	-10	3
CCN(CC)S(=O)(=O)c1ccc(C(=O)Nn2cnnc2)cc1	3466	-1	3	1.1	-5	9	5
Cc1ccc(N(CC(=O)NCc2ccccc2Cl)S(=O)(=O)c2cccs2)cc1	13529	5	-1	1.2	-7	-9	12
CCOC(=O)CSc1nc2ccc(C)cc2n2cnnc12	3901	-2	13	0.5	3	-1	-1
Cc1c([C@H]2[C@@H](CC#N)C2(C)C)c2ccccc2n1C	2844	·	·	·	-9	2	·
COc1ccc2cc(C(C)C(=O)OC(C)C)ccc2c1 (stereo not drawn)	3946	7	-1	9.2	-17	·	4
O=C(c1ccccc1)N1CCC(c2nc(-c3ccc(S(=O)(=O)NCC4CCCO4)cc3)no2)CC1 (stereo not drawn)	?	-2	0	0.7	-1	3	-5
Clc1ccc(CNc2ccc(N3CCN(Cc4ccccc4)CC3)cc2)cc1	3125	14	5	2.2	-30	7	7
CC(=O)NC1=NC(=O)/C(=C/N2CCCCC2)S1	11436	5	2	0.8	-29	7	1
Cc1nn(Cc2ccc(F)cc2)c(C)c1NC(=O)c1noc2c1CCCCC2	7991	7	1	3.3	-11	6	9
Cc1c(OCC(=O)NCC2CCC(C(=O)NCCCO)CC2)ccc2c(-c3ccccc3)cc(=O)oc12 (stereo not drawn)	5407	3	7	-0.2	-7	1	5
C[N+]1(CC(O)COCC2COc3ccccc3O2)CCOCC1 (stereo not drawn)	3038	19	7	7.5	0	4	8
CC(=O)Nc1cccc(C(=O)Nc2cccnc2)c1	3876	-3	5	-1.6	-23	17	-3
CCC(=O)NC(=S)NNC(=O)c1ccc(OC)cc1	9274	0	12	11	-1	5	-4
COc1ccccc1C(=O)NCC(=O)Nc1ccc2c(c1)CCC2	7800	-1	5	3.3	-66	·	10
Cn1cccc1C(=O)OCC(=O)Nc1cc(C(C)(C)C)nn1-c1ccccc1	4499	5	22	3.6	-1	-5	4
CN1CCC(=C2c3ccccc3C(O)c3ccccc32)CC1 (stereo not drawn)	3128	5	2	2.4	7	-2	-2
Cc1nnc(SCC(=O)c2ccc(Cl)cc2)n(N)c1=O	4383	12	-3	2.3	-74	·	0
CC1CC(C)CN(CC(O)COCCOc2ccc(Br)cc2)C1 (stereo not drawn)	2432	0	-6	0.3	-25	3	4

High-throughput results from PubChem.
